Screening results: PubChem, several laboratories
MT1-MMP reporter: MT1-MMP gene expression reporter suppression – cell-based, luciferase reporter, luminescence (AID 618); calls from a first round at 10 µM; hits with a dose series show EC50 in µM; MT1-MMP promoter luciferase reporter cells, luminescence; actives 0.62% (n = 87,000);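 active = over half of the reporter light lost at 10 µM or EC50 under 50 µM; inactive = the rest and hits that failed the dose series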;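 also: actives suppress MT1-MMP promoter-driven transcription so potencies describe inhibitors; HT1080 fibrosarcoma cells; overnight exposure; toxic or luciferase-blocking compounds were not removed from the actives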
Hsc70: Hsc70 inhibitors, probe displacement, primary screen, biochemical, fluorescence polarization (AID 568) | 83,000 tested, under 10 active | displacement, % at 20 µM, or IC50 in µM where a hit was titrated | Hsc70 fluorescence polarization, probe displacement; higher % means a stronger effect; strong numbers were not always called active;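 active = displacement above 50% without optical interference and an IC50 on retest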;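 also: ATPase domain with a fluorescein-tagged ATP probe; 0% = vehicle and 100% = excess ADP; read after one hour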
WNV protease inh: inhibitors of West Nile virus NS2B-NS3 protease | z-score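 (tested at a level between 10 and 100 µM)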 | actives 0.18% (n = 65,000) | WNV NS2B-NS3 protease, fluorogenic substrate Ex360/Em465; stronger effect = lower value | P06935 | AID 577;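 active = z-score at -3 or under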;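 also: score is relative to mean and spread of the compound wells of a plate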
Target sequence (P06935 1371-1501 limits assumed): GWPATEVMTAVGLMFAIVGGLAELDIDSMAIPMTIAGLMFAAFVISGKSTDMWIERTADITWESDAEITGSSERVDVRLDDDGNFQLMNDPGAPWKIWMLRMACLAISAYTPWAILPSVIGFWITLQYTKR
Target sequence (P06935 1502-1679 limits assumed): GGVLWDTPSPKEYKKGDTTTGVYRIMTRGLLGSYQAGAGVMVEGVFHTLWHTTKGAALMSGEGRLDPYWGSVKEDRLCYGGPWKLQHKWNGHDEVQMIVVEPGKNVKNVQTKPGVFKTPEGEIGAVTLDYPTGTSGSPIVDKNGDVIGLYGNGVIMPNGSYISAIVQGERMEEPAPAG
* hit, by the source's call; i = inactive; x = not tested or not shown.

SMILES	Hsc70	MT1-MMP reporter	WNV protease inh
COc1nc(NC(C)C)nc(NC(C)C)n1	-0.2%	i	x
c1cc2c(cc1CCNC1C3CC4CC(C3)CC1C4)OCO2 (configuration not stated)	-3.2%	i	x
Cc1ccc2occ(CN3CC4CC(C3)c3cccc(=O)n3C4)c(=O)c2c1 (configuration not stated)	3.3%	i	-1.1
CC(=NCCCN1CCOCC1)c1c(O)[nH]c(=O)[nH]c1=O	2.8%	i	0.36
Cc1c(C(=O)N2CCC3(CC2)OCCO3)sc2ncnc(N3CCN(c4ccccn4)CC3)c12	0.8%	i	0.64
CN1CCN(C(=O)COc2ccc3ccccc3c2Br)CC1	0.7%	i	1.2
Clc1ccccc1CN1CCN(c2ccccc2)CC1	-8.1%	i	x
O=C1CCCC2C3CCCN4CCCC(CN12)C34 (configuration not stated)	4.2%	i	-0.67
CC(=O)OC1N=C(c2ccccc2)c2ccccc2NC1=O (configuration not stated)	-0.4%	i	-0.1
CCOc1ccccc1-n1c(O)c(C=NCc2ccc3c(c2)OCO3)c(=O)[nH]c1=O	-4.0%	i	0.88
CCCNS(=O)(=O)c1ccc(OCC(=O)N2CCN(C)CC2)cc1	5.5%	i	x
Cc1ccc(C)c(NC(=O)CSc2nnc([C@@H](N)Cc3c[nH]c4ccccc34)o2)c1	-7.1%	i	-0.49
O=C(C1CCN(c2nc3ccc(Br)cc3s2)CC1)N1CCC2(CC1)OCCO2	1.1%	i	-1
COc1ccccc1N(CC(=O)NC1CCCCC1)C(=O)c1cnn(C(C)C)c1	1.6%	i	0.08
Cc1ccc(OCC(=O)N2CCN(C)CC2)c(Br)c1	-3.2%	i	0.68
C=Cn1ccnc1P(=S)(c1nccn1C=C)C1CCCCC1	0.2%	i	-0.24
COc1ccc(/C=C2/C(=O)NC(=O)N(C3CCCCC3)C2=O)cc1CSc1ccccn1	-3.1%	i	x
Cc1noc(C)c1C(=O)N1CCC2(CC1)OCCO2	-2.1%	i	-0.56
Cc1[nH]c2ccccc2c1/C=N/O	0.9%	i	-0.36
CC(=O)c1c(C)n(CC2CCCO2)c2ccc(O)cc12 (configuration not stated)	8.1%	i	-1.7
Cc1ccc(S(=O)(=O)NCC2CCC(C(=O)N3CCC4(CC3)OCCO4)CC2)cc1 (configuration not stated)	-2.1%	i	1.5
Cc1[nH]c2ccccc2c1C1=CCNCC1	-29%	i	0.4
CN(Cc1ccccc1)Cc1ccccc1OC(=O)N(C)C	-3.2%	i	0.14
Cc1nc2nc(C)c(CCC(=O)N3CCC4(CC3)OCCO4)c(C)n2n1	1.2%	i	0.05
Cc1cccn2c(=O)c3cc(C(=O)N4CCC5(CC4)OCCO5)n(C)c3nc12	-3.3%	i	1.5
COc1ccc(C2C(C(=O)N3CCC4(CC3)OCCO4)c3cc(OC)c(OC)cc3C(=O)N2C)cc1 (configuration not stated)	-2.6%	i	-0.05
CCOC(=O)c1ccc(N2C(=O)CC(N3CC=C(c4ccc(F)cc4)CC3)C2=O)cc1 (configuration not stated)	-19%	i	0.39
COc1ccc(C(=O)C(C)(C)NO)cc1	-0.2%	i	-0.99
CCC(C)N1C(=O)NC(=O)C2(Cc3c(ccc4ccccc34)N(C)C2)C1=O (configuration not stated)	-0.5%	i	0.39
COc1cc(CN2CCN(c3cc(C)ccc3C)CC2)ccc1O	5.1%	i	-1
CCOP(=O)(OCC)C(NC(=O)C(C)C)C(Cl)(Cl)Cl (configuration not stated)	-3.2%	i	x
CCOP1(=S)Oc2cc3c(cc2C(C(=O)OC)(C(F)(F)F)O1)OCO3 (configuration not stated)	0.9%	i	-0.4
CN1C2CCC1CC(OC(=O)CCN1CCCC1)C2 (configuration not stated)	-2.8%	i	-0.33
CCCCOC(=O)C1=C(N)OC2=C(C(=O)CC(C)(C)C2)[C@]12C(=O)N(C)c1ccccc12	4.7%	i	1.6
Cc1ccc(-n2nc(C)cc2NC(=O)COc2cc(C)cc3oc(=O)c4c(c23)CCC4)cc1	2.7%	i	x
Cn1c(O)c(C=NC2C(=O)C3(C)CCC2C3(C)C)c(=O)n(C)c1=O (configuration not stated)	1.3%	i	0.25
CN(C)C(=O)Oc1ccc(OC(=O)c2ccccc2)cc1	11%	i	-1.3
CCCCn1c(O)c(C(CC)=Nc2cccc(C(=O)O)c2)c(=O)[nH]c1=O	4.2%	i	-0.44
CC1(C)CC(=O)C(C2(O)C(=O)NC(=O)NC2=O)=C(O)C1	2.9%	i	-0.74
CN1C(=O)N(C)C(=O)C2(Cc3c(nc4ccccn4c3=O)N3CCc4ccccc4C32)C1=O (configuration not stated)	2.1%	i	-0.51
C[N+]1(C)CCN(c2ccccc2)CC1	-1.9%	i	-0.18
c1cc2c(cc1CCNC1CCCCCC1)OCO2	-2.3%	i	x
CSc1nnc(C2CCNCC2)n1C	-3.6%	i	-1
COc1ccc(N=C2SCCCN2C)cc1	0.6%	i	x
CN(C)CC1CSCCC1(O)c1ccccc1 (configuration not stated)	3.6%	i	x
CCN(CC)CCCN=Cc1c(O)n(Cc2ccc(F)cc2)c(=O)[nH]c1=O	-0.9%	i	0.22
COC(=O)C1C2c3ccccc3OC1(C)N=c1s/c(=C/c3cnn(C)c3)c(=O)n12 (configuration not stated)	-0.9%	i	-0.68
Cc1ccc2nc3c(cc2c1)CC1(C(=O)N(C)C(=O)N(C)C1=O)C1CCCCN31 (configuration not stated)	-4.6%	i	0.02
COc1ccccc1CC1/C(=N/O)C2CCN1CC2 (configuration not stated)	-2.8%	i	0.17
Cc1ccccc1NC1=NCCCS1	7.1%	i	-0.0069
Cn1c(O)c(C=NCCCC(=O)O)c(=O)n(C)c1=O	4.3%	i	x
CN1C(=O)N(C)C(=O)C2(Cc3cc(N)ccc3N3CCN(c4ccccc4F)CC32)C1=O (configuration not stated)	-3.5%	i	-0.59
CSC1=NP(=S)(SC)N(C)c2nc3n(c21)CCC3 (configuration not stated)	-3.2%	i	1.2
CCOc1ccccc1-n1c(O)c(C=Nc2ccc(N(CC)CC)cc2)c(=O)[nH]c1=O	-31%	i	-0.82
O=c1[nH]c(=O)n(-c2ccc(F)cc2)c(O)c1C=Nc1ccccc1N1CCCC1	-109%	i	-0.67
Cc1ccc(C(=O)Nc2ccc(-n3ccnc3P(=O)(O)c3ccccc3)cc2)cc1	0.7%	i	x
COc1cccc(-n2c(O)c(C=NCc3ccc4c(c3)OCO4)c(=O)[nH]c2=O)c1	-1.1%	i	x
Cc1ccc2c(c1)CNc1ccccc1O2	2.0%	i	-0.64
C=CCn1c(O)c(C(C)=Nc2ccc(N(C)C)cc2)c(=O)[nH]c1=O	2.9%	i	0.25
CC(Oc1ccc(-c2ccccc2)cc1)C(=O)O (configuration not stated)	1.6%	i	-1.4

Following part.
SMILES	Hsc70	MT1-MMP reporter	WNV protease inh
O=P(NS(=O)(=O)c1ccccc1)(Oc1ccccc1)Oc1ccccc1	5.1%	i	x
CN(C)c1ccc(N=Cc2c(O)n(CCC3=CCCCC3)c(=O)[nH]c2=O)cc1	-54%	i	-0.61
c1ccc(Cn2ccnc2)cc1	0.1%	i	0.62
COc1cccc(Oc2c(C)oc3cc(OC(=O)N(C)C)ccc3c2=O)c1	4.9%	i	-1.1
CCN(CC)C(=O)c1ccc(N2C(=O)C3CC=C(Cl)CC3C2=O)cc1 (configuration not stated)	-4.6%	i	-0.99
CCOC(=O)c1c(N)n(CCN2CCCCC2)c2nc3ccccc3nc12	1.0%	i	0.57
O=C(CSc1ccccc1)N1CCC2(CC1)OCCO2	-0.3%	i	-0.26
CCCC1=C(C(=O)OCC)C2(C(=O)Nc3ccc(C)cc32)C(C#N)=C(N)O1 (configuration not stated)	-5.1%	i	-1.5
CCC(=Nc1ccccc1NC(C)=O)c1c(O)n(C)c(=O)n(C)c1=O	-1.9%	i	0.7
CN1C(=O)C(C2(C#N)CCCCC2)C(=O)N(C)C1=O	1.5%	i	-0.8
Cc1cccc(CN2CCN(Cc3ccc(Cl)cc3)CC2)c1	7.4%	i	x
CC1CN=C(Nc2ccccc2)S1 (configuration not stated)	6.8%	i	-0.54

2 entries drawn at random from those above, as already listed:
SMILES	Hsc70	MT1-MMP reporter	WNV protease inh
O=C(CSc1ccccc1)N1CCC2(CC1)OCCO2	-0.3%	i	-0.26
CCOC(=O)c1c(N)n(CCN2CCCCC2)c2nc3ccccc3nc12	1.0%	i	0.57

The list continues.
SMILES	Hsc70	MT1-MMP reporter	WNV protease inh
CC1=CC(=O)NP(=O)(Oc2ccc3ccccc3c2)N1 (configuration not stated)	-3.3%	i	-0.86
O=C(Nc1cccc(OC(=O)N2CCOCC2)c1)N1CCOCC1	2.8%	i	0.06
CCCN1C2CCCC1CC(NC(C)=O)C2 (configuration not stated)	-2.7%	i	1.1
Cn1nc(N)c2c1N=P(N1CCOCC1)(N1CCOCC1)N=C2c1ccccc1	-2.6%	i	1.4
CCCCCCOc1ccc(CN2CCN(CC)CC2)cc1	-0.8%	i	x
CCC(COC(=O)NC)NC(=O)Oc1cccc(C)c1 (configuration not stated)	3.5%	i	x
FC(F)(F)c1ccc2c(c1)nnn2C1CCN(Cc2nnnn2Cc2ccccc2)CC1	-0.1%	i	0.72
Cc1occc1C(=O)N1CCC2(CC1)OCCO2	9.1%	i	0.91
CCCCn1c(O)c(C(CC)=NCCCN(C)C)c(=O)[nH]c1=O	-1.7%	i	-0.05
COC(=O)C1C2c3ccccc3OC1(C)N=c1s/c(=C/c3cnn(C)c3C)c(=O)n12 (configuration not stated)	1.2%	i	-0.21
CCCCn1c(O)c(C(CC)=NCc2cccnc2)c(=O)[nH]c1=O	-2.7%	i	x
CCCCn1c(O)c(C=NCCCn2ccnc2)c(=O)[nH]c1=O	-8.2%	i	0.61
CNC(C(=O)c1ccccc1)C(OC)c1ccccc1 (configuration not stated)	-2.9%	i	-0.78
O=C(c1cc(S(=O)(=O)N2CCCCC2)ccc1F)N1CCC2(CC1)OCCO2	1.5%	i	x
Cc1ccc2c(c1)[C@@H]1CN(C)CC[C@@H]1N2C(=O)Nc1cccc(C(F)(F)F)c1	0.3%	i	-0.26
Cc1cc(N2C(=O)C3CCCN3C2c2ccccc2)no1 (configuration not stated)	-3.2%	i	0.48
O=P(N1CCCCC1)(N1CCCCC1)C(Cl)(Cl)Cl	3.2%	i	x
COc1cccc(CN2CCN(C(=O)COc3ccc4ccccc4c3)CC2)c1	8.2%	i	-0.14
CC(=NCCN1CCCCC1)c1c(O)[nH]c(=O)[nH]c1=O	-2.2%	i	-0.27
Cc1cccc(CN(C)C)c1OC(=O)N(C)C	-0.2%	i	-0.38
CCOC(=O)C1=C(C)OC(N)=C(C#N)C12C(=O)N(C)c1ccccc12 (configuration not stated)	3.6%	i	x
C=CCn1c(O)c(C(CC)=NC(C)c2ccccc2)c(=O)[nH]c1=O (configuration not stated)	-0.4%	i	x
Cc1cc(N2C(=O)C3CCCN3C2c2ccc(Cl)c(Cl)c2)no1 (configuration not stated)	-1.2%	i	0.21
c1ccc(C2NCc3ccccc3-n3cccc32)cc1 (configuration not stated)	4.1%	i	-0.15
CCCCSP1(=S)NCCCN1	3.3%	i	-0.27
O=C(COc1ccc(Cl)cc1)NC1CN2CCC1CC2 (configuration not stated)	5.3%	i	-0.29
CCOP(=S)(OCC)SCOC(=O)NCC(=O)OC	1.2%	i	-0.51
Nc1c(C(=O)OCc2ccccc2)c2nc3ccccc3nc2n1Cc1cccs1	1.6%	i	x
CNP1(NC)=NC(C(F)(F)F)=NC(C(F)(F)F)=N1	2.7%	i	-0.94
CN(C)CC1CSCCC1(O)c1cccc(Cl)c1 (configuration not stated)	0.7%	i	x
CCOC(=O)C(O)(c1ccc(N(CC)S(=O)(=O)c2ccccc2)cc1)C(F)(F)F (configuration not stated)	-4.1%	i	-0.6
CCC1=C(C)C(N2CCOCC2)=NP(N2CCOCC2)(N2CCOCC2)=N1	1.4%	i	0.32
O=c1[nH]c(=O)n(Cc2ccco2)c(O)c1C=NCc1ccc2c(c1)OCO2	2.7%	i	-0.32
CN1CCC(O)(c2ccccc2)C(C(=O)c2ccccc2)C1 (configuration not stated)	-2.6%	i	-1.1
CCC(=O)N1CC(=O)Nc2ccc(Cl)cc2C1c1ccc(F)cc1 (configuration not stated)	5.6%	i	-0.83

Compounds listed so far containing a thiophene ring, fused or not:
SMILES	Hsc70	MT1-MMP reporter	WNV protease inh
Cc1c(C(=O)N2CCC3(CC2)OCCO3)sc2ncnc(N3CCN(c4ccccn4)CC3)c12	0.8%	i	0.64
Nc1c(C(=O)OCc2ccccc2)c2nc3ccccc3nc2n1Cc1cccs1	1.6%	i	x

An excerpt; the hit share may differ from the screen's.
